# Vaccinia stage: blocks a specific stage of Vaccinia orthopoxvirus infection, primary screen, cell-based, single point; 89,000 tested, 0.01% active; AID 1053133, 2014; activity change (mCherry), % (no concentration beside the values); Vaccinia-infected cells, mCherry/Venus stage reporter fluorescence; stronger effect = lower value; some inactives read as strong as hits;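 active means mCherry past -33% and 40 or more points under the early reporter, replicates agreeing; inconclusive means past -33% without that gap or agreement; tested in A549 cells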;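 further: scaled between vehicle wells and reference inhibitor wells; 23 nL library stock went into each well; one replicate is shown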
# Vaccinia stage Venus: recorded beside Vaccinia stage, whose call it bears; activity change (Venus), %; measured here: Venus reporter, other viral stage;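 negative = less Venus signal; first of two replicates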
# Active calls of the source: *; ? = inconclusive; . = not tested or not shown. Only part of the results is shown; the hit share may differ from the screen's.
SMILES,Vaccinia stage,Vaccinia stage Venus
CC(C)NC(=O)N(C)C[C@H]1OCCCC[C@H](C)Oc2ccc(NC(=O)Nc3ccc4c(c3)OCO4)cc2C(=O)N([C@H](C)CO)C[C@@H]1C,15,4
CN(C)C(=O)c1cccc(-c2ccc([C@@H]3[C@H]4CN(C(=O)Cc5ccccc5)CC(=O)N4[C@H]3CO)cc2)c1,16,2
C/C=C/c1cnc2c(c1)C(=O)N([C@H](C)CO)C[C@H](C)[C@@H](CN(C)C(=O)Nc1cccc(OC)c1)O2,-4,-4
CC(C)NC(=O)Nc1cccc2c1O[C@@H](CN(C)C(=O)Nc1ccccc1)[C@@H](C)CN([C@H](C)CO)C2=O,6,8
C#CCNC(=O)C1=C[C@H](c2ccc(C(F)(F)F)cc2)C[C@H](OCc2ccc(CO)cc2)O1,-1,-2
C[C@H](CO)N1C[C@H](C)[C@H](CN(C)Cc2ccc(C(F)(F)F)cc2)Oc2ccc(N(C)C)cc2C1=O,-14,-6
C[C@@H]1CN([C@H](C)CO)S(=O)(=O)c2ccc(Br)cc2O[C@@H]1CN(C)C(=O)c1cnccn1,8,-1
COc1cccc(S(=O)(=O)Nc2ccc3c(c2)[C@@H]2C[C@@H](CC(=O)N(C)C)O[C@@H](CO)[C@@H]2O3)c1,2,2
Cc1ccc(S(=O)(=O)Nc2ccc3c(c2)C(=O)N([C@@H](C)CO)C[C@H](C)[C@H](CN(C)S(=O)(=O)c2c(C)noc2C)O3)cc1,14,8
O=C(C[C@H]1C=C[C@@H](NC(=O)NC2CCCCC2)[C@@H](CO)O1)NCc1ccccc1,2,9
CC(C)NC(=O)N(C)C[C@@H]1Oc2ccc(NC(=O)CCN3CCOCC3)cc2CC(=O)N([C@@H](C)CO)C[C@H]1C,11,13
O=C(c1ccccc1)N1C[C@@H]2[C@H](c3ccccc31)[C@@H](CO)N2C(=O)c1cccc(F)c1,-9,10
C[C@@H]1CN([C@H](C)CO)S(=O)(=O)c2ccc(C#Cc3ccc(F)cc3)cc2O[C@@H]1CN(C)C(=O)NC1CCCC1,?,.
COc1ccccc1NC(=O)N1C[C@H](O)COC[C@@H]2O[C@@H](CC(=O)NCCc3ccncc3)CC[C@H]21,7,3
C[C@@H]1CN([C@H](C)CO)C(=O)CCCn2nncc2CO[C@@H]1CN(C)S(=O)(=O)c1cccs1,2,4
CCCC#Cc1cnc2c(c1)C(=O)N([C@@H](C)CO)C[C@H](C)[C@@H](CN(C)S(=O)(=O)c1ccccc1)O2,-8,-14
COc1ccc(NC(=O)Nc2ccc3c(c2)[C@H]2C[C@H](CC(=O)NCC4CC4)O[C@H](CO)[C@H]2O3)cc1,-4,-4
COc1cccc(-c2ccc3c(c2)O[C@H](CN(C)Cc2cncnc2)[C@H](C)CN([C@@H](C)CO)S3(=O)=O)c1,-29,-24
O=C(CC1CC1)N1CC(=O)N2[C@@H](CO)[C@@H](c3ccc(C#Cc4cccc(F)c4)cc3)[C@@H]2C1,?,.
CCCNC(=O)N[C@H]1C=C[C@H](CC(=O)N2CCN(C)CC2)O[C@H]1CO,-2,3
C[C@@H]1CN([C@H](C)CO)C(=O)Cc2cc(NS(=O)(=O)c3cccs3)ccc2O[C@@H]1CN(C)C(=O)NC1CCCCC1,20,12
COc1ccc(S(=O)(=O)Nc2ccc3c(c2)C(=O)N([C@@H](C)CO)C[C@H](C)[C@@H](CN(C)C(=O)NC2CCCCC2)OCCCC[C@H](C)O3)cc1,?,.
CN(C)CC#Cc1ccc([C@H]2[C@@H](CO)N3CCCCN(C(=O)c4ccc5c(c4)OCO5)C[C@@H]23)cc1,15,9
COc1ccc(-c2ccc([C@@H]3[C@@H](C#N)N(C(=O)C4CCCC4)[C@H]3CO)cc2)cc1,-3,11
C[C@H]1CN([C@@H](C)CO)C(=O)Cc2cc(NS(=O)(=O)c3ccc(F)cc3)ccc2O[C@@H]1CN(C)S(=O)(=O)c1ccc(F)cc1,13,16
O=C(c1cccc(F)c1)N1CCCCN2[C@H](CO)[C@@H](c3ccc(C#CC4(O)CCCC4)cc3)[C@H]2C1,8,9
Cc1noc(C)c1NC(=O)N(C)C[C@H]1Oc2ncc(C#CC3CC3)cc2C(=O)N([C@H](C)CO)C[C@@H]1C,3,-3
C[C@@H]1CN([C@@H](C)CO)C(=O)c2cccc(NC(=O)Nc3ccc(F)cc3)c2O[C@H]1CN(C)C(=O)Nc1ccc2c(c1)OCO2,4,2
Cc1cccc(S(=O)(=O)NC[C@@H]2CC[C@H]3NC[C@H]3O2)c1,6,8
OC[C@H]1[C@@H](c2ccc(-c3cccnc3)cc2)[C@@H]2CN(CC3CCOCC3)CCCCN12,9,5
Cc1ccc(S(=O)(=O)Nc2ccc3c(c2)CC(=O)N([C@@H](C)CO)C[C@H](C)[C@H](CN(C)Cc2ccc(Cl)c(Cl)c2)O3)cc1,-30,-24
COCC(=O)N(C)C[C@H]1[C@H](c2ccccc2)[C@H](CO)N1C(=O)Cc1ccncc1,9,11
COCC(=O)N1[C@H](C(=O)Nc2ccccc2)[C@@H](CO)[C@@H]2Cn3c(ccc(-c4cccnc4)c3=O)[C@@H]21,13,11
C[C@H]1CN([C@@H](C)CO)C(=O)c2cccc(NC(=O)Nc3ccccc3)c2O[C@@H]1CN(C)CC1CCCCC1,-16,-12
C[C@@H]1CN([C@@H](C)CO)C(=O)c2cc(NS(=O)(=O)c3ccc(Cl)cc3)ccc2O[C@@H](C)CCCCO[C@@H]1CN(C)C(=O)Nc1ccc2c(c1)OCO2,-4,-3
C[C@H]1CN([C@@H](C)CO)C(=O)c2cc(NS(=O)(=O)c3ccc(Cl)cc3)ccc2O[C@H]1CN(C)Cc1ccc(Oc2ccccc2)cc1,?,.
O=C(CC(F)(F)F)N1C[C@H]2[C@@H](c3ccccc31)[C@@H](CO)N2C(=O)Cc1cccnc1,12,17
COc1ccc(S(=O)(=O)N(C)C[C@@H]2Oc3ccc(NS(=O)(=O)c4c(C)noc4C)cc3C(=O)N([C@H](C)CO)C[C@@H]2C)cc1,11,10
C[C@@H]1CN([C@@H](C)CO)C(=O)c2cccc(NC(=O)C3CC3)c2O[C@H]1CN(C)S(=O)(=O)c1ccccc1,10,10
COc1ccc2c3c([nH]c2c1)[C@H](CO)N(CC1CC1)CC31CN(C(=O)NC2CCCC2)C1,2,4

# Already shown: entries from further up.
SMILES,Vaccinia stage,Vaccinia stage Venus
Cc1ccc(S(=O)(=O)Nc2ccc3c(c2)CC(=O)N([C@@H](C)CO)C[C@H](C)[C@H](CN(C)Cc2ccc(Cl)c(Cl)c2)O3)cc1,-30,-24
COCC(=O)N(C)C[C@H]1[C@H](c2ccccc2)[C@H](CO)N1C(=O)Cc1ccncc1,9,11
COCC(=O)N1[C@H](C(=O)Nc2ccccc2)[C@@H](CO)[C@@H]2Cn3c(ccc(-c4cccnc4)c3=O)[C@@H]21,13,11
C[C@H]1CN([C@@H](C)CO)C(=O)c2cccc(NC(=O)Nc3ccccc3)c2O[C@@H]1CN(C)CC1CCCCC1,-16,-12
C[C@@H]1CN([C@@H](C)CO)C(=O)c2cc(NS(=O)(=O)c3ccc(Cl)cc3)ccc2O[C@@H](C)CCCCO[C@@H]1CN(C)C(=O)Nc1ccc2c(c1)OCO2,-4,-3
C[C@H]1CN([C@@H](C)CO)C(=O)c2cc(NS(=O)(=O)c3ccc(Cl)cc3)ccc2O[C@H]1CN(C)Cc1ccc(Oc2ccccc2)cc1,?,.
O=C(CC(F)(F)F)N1C[C@H]2[C@@H](c3ccccc31)[C@@H](CO)N2C(=O)Cc1cccnc1,12,17
COc1ccc(S(=O)(=O)N(C)C[C@@H]2Oc3ccc(NS(=O)(=O)c4c(C)noc4C)cc3C(=O)N([C@H](C)CO)C[C@@H]2C)cc1,11,10
C[C@@H]1CN([C@@H](C)CO)C(=O)c2cccc(NC(=O)C3CC3)c2O[C@H]1CN(C)S(=O)(=O)c1ccccc1,10,10
COc1ccc2c3c([nH]c2c1)[C@H](CO)N(CC1CC1)CC31CN(C(=O)NC2CCCC2)C1,2,4

# (continued)
SMILES,Vaccinia stage,Vaccinia stage Venus
Cc1noc(C)c1S(=O)(=O)Nc1cccc2c1O[C@H](CN(C)C(=O)Nc1ccc(F)cc1)[C@H](C)CN([C@H](C)CO)C2=O,-4,-4
C[C@H]1CN([C@@H](C)CO)C(=O)Cc2cc(NS(=O)(=O)c3cn(C)cn3)ccc2O[C@@H]1CN(C)S(=O)(=O)c1ccc(F)cc1,0,-4
COc1ccc(CN(C)C[C@@H]2Oc3ccc(NC(=O)Cc4ccccc4)cc3CC(=O)N([C@H](C)CO)C[C@@H]2C)cc1,-3,-7
C[C@H](CO)N1C[C@H](C)[C@H](CN(C)Cc2ccccn2)Oc2ncc(C#Cc3ccc(F)cc3)cc2C1=O,-9,-6
COc1cccc(NC(=O)N(C)C[C@@H]2Oc3cc(/C=C/c4ccccc4)ccc3S(=O)(=O)N([C@@H](C)CO)C[C@H]2C)c1,?,.
CC(C)NC(=O)N1CCCCN2[C@H](CO)[C@H](c3ccc(C#C[C@H](C)O)cc3)[C@@H]2C1,57,18
O=C(C[C@@H]1C=C[C@H](NC(=O)CCN2CCCCC2)[C@H](CO)O1)NCc1ccc(Cl)c(Cl)c1,-33,-18
CCCNC(=O)C[C@@H]1CC[C@@H]2[C@H](COC[C@@H](O)CN2C(=O)Nc2c(C)noc2C)O1,1,1
CO[C@H]1CN(C)C(=O)c2ccc(NC(=O)Nc3cccc(F)c3)cc2OC[C@H](C)N(C)C[C@H]1C,-14,-5
CCC(=O)N(C)C[C@@H]1Oc2cc(-c3cncnc3)ccc2S(=O)(=O)N([C@H](C)CO)C[C@H]1C,14,5
CO[C@@H]1CN(C)C(=O)c2cc(NS(=O)(=O)c3ccc(Oc4ccccc4)cc3)ccc2OC[C@@H](C)NC[C@@H]1C,-28,-24
CN1c2ccc(-c3ccccc3F)cc2[C@H]2[C@H](CCN2C(=O)Cc2ccccn2)[C@@H]1CO,-17,-5
N#C[C@@H]1[C@@H](c2ccc(C3=CCCC3)cc2)[C@H](CO)N1c1nc(-c2ccccc2)cs1,12,15
O=C(C[C@@H]1C=C[C@@H](NC(=O)CCN2CCCCC2)[C@H](CO)O1)Nc1ccc(-c2ccccc2)cc1,?,.
COCCNC(=O)C[C@@H]1CC[C@H]2[C@@H](COC[C@H](O)CN2Cc2ccc(Cl)c(Cl)c2)O1,0,-4
COc1cccc(CNC(=O)C[C@@H]2CC[C@@H](NC(=O)C3CC3)[C@H](CO)O2)c1,4,2
COc1ccc(C#Cc2ccc([C@H]3[C@H]4CN(C(=O)Nc5ccc(F)cc5)CCCCN4[C@H]3CO)cc2)cc1,-16,-19
COc1ccc(CN(C)C[C@@H]2Oc3ccc(NC(=O)Cn4cnnn4)cc3CC(=O)N([C@@H](C)CO)C[C@@H]2C)cc1,13,7
C[C@@H]1CN([C@@H](C)CO)C(=O)c2c(c3ccccc3n2C)-c2ccccc2CO[C@@H]1CN(C)C(=O)[C@H](Cc1ccccc1)N(C)C,?,.
COc1cccc(C#Cc2ccc3c(c2)O[C@@H](CN(C)C(=O)c2ccccn2)[C@@H](C)CN([C@H](C)CO)S3(=O)=O)c1,-28,-28
CC(C)NC(=O)N1[C@H](CO)[C@@H](c2ccc(C#CC3CCCC3)cc2)[C@@H]1C#N,?,.
CC(C)NC(=O)N1[C@H](CO)[C@@H](c2ccc(-c3ccc(F)cc3)cc2)[C@@H]1C#N,?,.
Cc1ccc(-c2ccc([C@H]3[C@@H](CO)N4CCCCN(S(=O)(=O)c5ccccc5C)C[C@@H]34)cc2)cc1,?,.
C[C@@H]1CN([C@H](C)CO)C(=O)CCCn2nncc2CO[C@@H]1CN(C)C(=O)C1CC1,11,-2
COc1ccc(S(=O)(=O)Nc2ccc3c(c2)CC(=O)N([C@@H](C)CO)C[C@@H](C)[C@H](CN(C)S(=O)(=O)c2c(C)noc2C)O3)cc1,13,11
C[C@@H]1CN([C@H](C)CO)C(=O)c2cc(NC(=O)Cc3ccccc3)ccc2O[C@@H]1CN(C)Cc1ccncc1,-4,0
COc1ccc(NC(=O)Nc2ccc3c(c2)C(=O)N([C@H](C)CO)C[C@@H](C)[C@@H](CN(C)S(=O)(=O)c2ccc(F)cc2)OCCCC[C@H](C)O3)cc1,12,12
O=C1O[C@@H](c2ccccc2)[C@@H](c2ccccc2)N2[C@@H](c3ccc(OCCO)cc3)[C@]3(C(=O)Nc4ccc(C#CCCO)cc43)[C@@H](C(=O)N3CCN(c4ncccn4)CC3)[C@H]12,9,1
C[C@@H](NC(=O)C[C@H]1CC[C@@H]2[C@H](COc3ccc(NS(=O)(=O)c4ccc(Cl)cc4)cc3C(=O)N2C)O1)c1ccccc1,-9,-2
CCC(=O)N(C)C[C@H]1Oc2ncc(-c3cccc(OC)c3)cc2C(=O)N([C@@H](C)CO)C[C@H]1C,17,10
O=C(C[C@H]1C=C[C@H](NC(=O)CN2CCOCC2)[C@H](CO)O1)NC1CCCCC1,2,0
C[C@H](CO)N1C[C@H](C)[C@H](CN(C)Cc2ccc3c(c2)OCO3)Oc2ccc(NS(=O)(=O)c3ccccc3)cc2CC1=O,-24,-15
CCCC(=O)Nc1ccc2c(c1)C(=O)N(C)C[C@H](OC)[C@H](C)CN(Cc1ccccn1)[C@@H](C)CO2,3,1
C[C@@H]1CCCCO[C@H](CN(C)Cc2ccccc2)[C@@H](C)CN([C@H](C)CO)C(=O)c2cc(NC(=O)CCCN(C)C)ccc2O1,11,8
Cc1noc(C)c1S(=O)(=O)Nc1ccc2c(c1)CC(=O)N([C@@H](C)CO)C[C@H](C)[C@@H](CN(C)Cc1ccc(C(F)(F)F)cc1)O2,-15,-13
Cc1ccc(S(=O)(=O)N(C)C[C@H]2Oc3ccc(NC(=O)C4CC4)cc3C(=O)N([C@@H](C)CO)C[C@@H]2C)cc1,-16,-9
C[C@@H]1CN([C@H](C)CO)C(=O)c2cc(-c3ccccc3F)cnc2O[C@@H]1CN(C)Cc1ccccc1,4,5
C[C@@H]1CN([C@H](C)CO)C(=O)c2cccc(NC(=O)Nc3ccc(F)cc3)c2O[C@@H]1CN(C)S(=O)(=O)c1ccc(Cl)cc1,?,.

# Source: PubChem (Broad Institute)
